HIV Env fusion: HIV envelope-mediated fusion inhibition | HeLa-JRFL Env/CEM21 cell fusion, luciferase | inhibition, % at 12.3 µM | 360,000 compounds, 1.1% hits | AID 651610;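 active = mean replicate inhibition score of at least 50 and every replicate individually at or above 50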;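 also: 0% = plate neutral controls and 100% = maraviroc near 300 nM; one replicate is shown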
Yeast UUG start: modulators of start codon recognition fidelity in yeast; S. cerevisiae UUG-firefly luciferase reporter, luminescence/redox ratio; activity score, % at 18.7 µM; 350,000 compounds, 0.13% hits; AID 602363;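 active = replicate mean at a twofold rise or more, about +100% in these data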;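 also: firefly luciferase made from a UUG start codon reports start codon fidelity; reporter light over untreated wells divided by growth signal over untreated wells; some hits fall short of that in this replicate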
Starred values were filed as active, the others as inactive; [ ] = remark or other dose. Only part of the results is shown; count on the stated rates, not on these rows.

SMILES	HIV Env fusion	Yeast UUG start
C[C@H]1CCCCO[C@H](CN(C)C(=O)Nc2ccc(F)cc2)[C@@H](C)CN([C@@H](C)CO)C(=O)c2cc(NC(=O)C3CCCCC3)ccc2O1	-0.5[16.7 µM]	5.5
C[C@@H]1CCCCO[C@@H](CN(C)S(C)(=O)=O)[C@H](C)CN([C@H](C)CO)C(=O)c2cc(NS(=O)(=O)c3ccccc3)ccc2O1	10.6[16.7 µM]	28.9
C[C@@H]1CN([C@H](C)CO)C(=O)c2cc(-c3ccc(F)cc3)cnc2O[C@@H]1CN(C)C(=O)c1ccc(F)cc1	1.7[16.7 µM]	-4.4
C[C@@H]1CCCCO[C@@H](CN(C)S(=O)(=O)c2ccc(Cl)cc2)[C@@H](C)CN([C@H](C)CO)C(=O)c2cc(NS(=O)(=O)c3ccccc3)ccc2O1	-8.2[16.7 µM]	-9.6
CC(C)NC(=O)N(C)C[C@@H]1Oc2c(NC(=O)C3CC3)cccc2C(=O)N([C@@H](C)CO)C[C@@H]1C	-15.3[16.7 µM]	-2.8
Cc1ccc(S(=O)(=O)N(C)C[C@H]2Oc3c(NS(=O)(=O)c4c(C)noc4C)cccc3C(=O)N([C@H](C)CO)C[C@H]2C)cc1	10.5[16.7 µM]	3.6
C[C@@H]1CCCCO[C@@H](CN(C)C(=O)CCCN(C)C)[C@@H](C)CN([C@@H](C)CO)C(=O)c2cc(NC(=O)Nc3ccc(C(F)(F)F)cc3)ccc2O1	2.5[16.7 µM]	24.2
C[C@@H]1CCCCO[C@@H](CN(C)S(=O)(=O)c2cccs2)[C@H](C)CN([C@H](C)CO)C(=O)c2cc(NC(=O)Nc3cccc4ccccc34)ccc2O1	7.1[16.7 µM]	4.8
COc1ccccc1C#Cc1ccc2c(c1)O[C@@H](CN(C)C(C)=O)[C@H](C)CN([C@H](C)CO)S2(=O)=O	13.9[16.7 µM]	27.8
C[C@H](CO)N1C[C@H](C)[C@H](CN(C)S(C)(=O)=O)OCCCC[C@H](C)Oc2ccc(NS(=O)(=O)c3ccc(Cl)cc3)cc2C1=O	-11.6[16.7 µM]	-7.9
C[C@H]1CN([C@@H](C)CO)C(=O)Cc2cc(NC(=O)C3CC3)ccc2O[C@H]1CN(C)S(=O)(=O)c1ccccc1	13.1[16.7 µM]	14.3
COc1ccc(CN(C)C[C@@H]2Oc3ccc(NC(=O)C4CCCCC4)cc3C(=O)N([C@H](C)CO)C[C@H]2C)cc1	16.6[16.7 µM]	-5.0
CCCN(C)C[C@H]1Oc2cc(C#Cc3ccc(OC)cc3)ccc2S(=O)(=O)N([C@H](C)CO)C[C@H]1C	2.8[16.7 µM]	-8.4
C[C@H](NC(=O)C[C@H]1C=C[C@H](NC(=O)C2CCC2)[C@H](CO)O1)c1ccccc1	-0.4[16.7 µM]	-13.8
C[C@@H]1CCCCO[C@@H](CN(C)C)[C@H](C)CN([C@H](C)CO)C(=O)c2cc(N(C)C)ccc2O1	1.8[16.7 µM]	12.0
CN(C)CCCNC(=O)C[C@H]1CC[C@@H](NC(=O)Cc2cccnc2)[C@H](CO)O1	-24.4[16.7 µM]	-38.6
CC(C)NC(=O)N(C)C[C@@H]1Oc2cc(-c3ccccc3F)ccc2S(=O)(=O)N([C@@H](C)CO)C[C@@H]1C	-10.6[16.7 µM]	4.8
CC(C)CC#Cc1cnc2c(c1)C(=O)N([C@@H](C)CO)C[C@H](C)[C@@H](CN(C)C(=O)C1CCCCC1)O2	-7.3[16.7 µM]	9.0
COC(=O)c1cn(CCCNC(=O)[C@H](Cc2ccccc2)NS(=O)(=O)c2ccc(C)cc2)nn1	6.6[16.7 µM]	14.5
CC(C)C#Cc1cnc2c(c1)C(=O)N([C@@H](C)CO)C[C@@H](C)[C@H](CN(C)S(=O)(=O)c1cn(C)cn1)O2	-21.0[16.7 µM]	1.0
C[C@@H]1CN([C@@H](C)CO)C(=O)Cc2cc(NS(=O)(=O)c3ccc(Cl)cc3)ccc2O[C@H]1CN(C)S(=O)(=O)c1ccc(F)cc1	7.8[16.7 µM]	12.8
O=C(Nc1ccc2c(c1)[C@H]1C[C@H](CC(=O)N3CCCCC3)O[C@@H](CO)[C@H]1O2)c1cccnc1	-2.1[16.7 µM]	-3.3
C[C@@H]1CN([C@H](C)CO)C(=O)c2cc(NS(=O)(=O)c3cccs3)ccc2O[C@H]1CN(C)S(=O)(=O)c1cn(C)cn1	5.9[16.7 µM]	2.6
Cc1ccc(S(=O)(=O)Nc2ccc3c(c2)CC(=O)N([C@@H](C)CO)C[C@@H](C)[C@H](CN(C)S(=O)(=O)c2ccc(C)cc2)O3)cc1	-12.3[16.7 µM]	-4.4
COc1ccc(S(=O)(=O)Nc2cccc3c2O[C@H](CN(C)Cc2ccccc2)[C@H](C)CN([C@@H](C)CO)C3=O)cc1	2.0[16.7 µM]	-9.3
N#C[C@@H]1N[C@@H](CO)[C@H]1c1ccc(C#CC2CCCC2)cc1	-0.5[16.7 µM]	-0.2
COc1ccc(S(=O)(=O)N(C)C[C@@H]2Oc3ccc(NC(=O)c4ccncc4)cc3CC(=O)N([C@@H](C)CO)C[C@H]2C)cc1	-30.8[16.7 µM]	0.0
CNC(=O)C[C@@H]1CC[C@H]2[C@H](COc3ccc(NC(=O)c4cscn4)cc3C(=O)N2C)O1	2.8[16.7 µM]	2.1
C[C@H]1CCCCO[C@H](CN(C)Cc2ccc(C(=O)O)cc2)[C@@H](C)CN([C@@H](C)CO)C(=O)c2cc(NC(=O)Nc3cccc4ccccc34)ccc2O1	3.1[16.7 µM]	-3.6
C[C@H](CO)N1C[C@H](C)[C@H](CN(C)C(=O)Nc2cccc3ccccc23)Oc2ccc(NC(=O)c3ccncc3)cc2CC1=O	17.4[16.7 µM]	-6.4
Cc1cc(C(=O)Nc2ccc3c(c2)C(=O)N(C)[C@@H]2CC[C@@H](CC(=O)O)O[C@H]2CO3)no1	20.1[16.7 µM]	-11.1
C[C@H](NC(=O)C[C@H]1C[C@@H]2c3cc(NC(=O)NC4CCCC4)ccc3O[C@@H]2[C@H](CO)O1)c1ccccc1	-8.1[16.7 µM]	-4.7
CN(C)CC(=O)N[C@H]1C=C[C@H](CC(=O)NCCN2CCCCC2)O[C@H]1CO	-1.0[16.7 µM]	-3.7
C[C@H](CO)N1C[C@H](C)[C@H](CN(C)C(=O)NC2CCCCC2)Oc2ccc(NC(=O)Cc3cn(C)c4ccccc34)cc2C1=O	-4.7[16.7 µM]	2.9
C[C@H](CO)N1C[C@H](C)[C@@H](CN(C)C(=O)Nc2ccc3c(c2)OCO3)Oc2c(NS(C)(=O)=O)cccc2C1=O	-0.7[16.7 µM]	10.4
CC(C)NC(=O)N(C)C[C@@H]1Oc2cc(C3=CCCC3)ccc2S(=O)(=O)N([C@H](C)CO)C[C@H]1C	7.7[16.7 µM]	-6.0
C[C@H](CO)N1C[C@H](C)[C@@H](CN(C)Cc2ccc(Cl)c(Cl)c2)Oc2ccc(NC(=O)Nc3cccc4ccccc34)cc2CC1=O	10.1[16.7 µM]	-6.7
CN(C)CCCNC(=O)C[C@@H]1C=C[C@@H](NC(=O)Cc2cccnc2)[C@H](CO)O1	12.0[16.7 µM]	-6.5
COCC(=O)N(C)C[C@@H]1Oc2ncc(C#C[C@H](C)O)cc2C(=O)N([C@H](C)CO)C[C@@H]1C	-7.3[16.7 µM]	-11.0
COc1ccc(NC(=O)N(C)C[C@H]2Oc3c(NC(=O)C4CCCCC4)cccc3C(=O)N([C@@H](C)CO)C[C@@H]2C)cc1	1.5[16.7 µM]	6.9
CC(C)NC(=O)N[C@@H]1CC[C@@H](CCNC(=O)C2CC2)O[C@@H]1CO	-15.9[16.7 µM]	-7.8
Cc1ccc(S(=O)(=O)N(C)C[C@H]2Oc3c(NC(=O)Nc4ccc(C(F)(F)F)cc4)cccc3C(=O)N([C@H](C)CO)C[C@H]2C)cc1	-4.9[16.7 µM]	3.6
C[C@H](CO)N1C[C@H](C)[C@@H](CN(C)C)Oc2ccc(NC(=O)Cn3cnnn3)cc2CC1=O	-3.3[16.7 µM]	-9.3
O=C(C[C@@H]1C=C[C@H](NC(=O)Nc2ccc(F)cc2)[C@H](CO)O1)NCCN1CCCC1	10.8[16.7 µM]	-5.9
C[C@@H]1CN([C@@H](C)CO)C(=O)c2cc(NS(=O)(=O)c3ccccc3)ccc2O[C@@H]1CN(C)C(=O)Nc1ccc2c(c1)OCO2	-1.8[16.7 µM]	2.7
C[C@@H]1CN([C@H](C)CO)S(=O)(=O)c2ccc(-c3ccc(F)cc3)cc2O[C@H]1CN(C)C(=O)C1CCCCC1	42.7[16.7 µM]	-4.3
C[C@H](CO)N1C[C@H](C)[C@H](CN(C)C(=O)Nc2ccc(C(F)(F)F)cc2)Oc2ccc(NC(=O)c3ccncc3)cc2CC1=O	12.6[16.7 µM]	-3.4
C=CCN1C(=O)[C@@]2(O[C@@H](CCO)[C@H]([Si](C)(C)c3ccc(OC)cc3)[C@H]2C)c2cc(N3CCOC3=O)ccc21	15.3[16.7 µM]	10.1
CCCN(C)C[C@H]1Oc2ncc(-c3ccccc3F)cc2C(=O)N([C@@H](C)CO)C[C@H]1C	23.8[16.7 µM]	-5.7
CO[C@H]1CN(C)C(=O)c2cc(NC(=O)Nc3cccc(F)c3)ccc2OC[C@H](C)N(C)C[C@@H]1C	-2.1[16.7 µM]	0.5
C[C@@H]1CN([C@H](C)CO)C(=O)Cc2cc(NC(=O)NC3CCCCC3)ccc2O[C@H]1CN(C)CC1CCCCC1	32.7[16.7 µM]	16.5
C[C@@H]1CN([C@H](C)CO)S(=O)(=O)c2ccc(-c3ccccc3)cc2O[C@H]1CN(C)Cc1ccccc1	55.1*[16.7 µM]	11.4
C[C@H]1CN([C@@H](C)CO)S(=O)(=O)c2ccc(C#CC3CC3)cc2O[C@H]1CN(C)C(=O)CN(C)C	3.3[16.7 µM]	-1.2
C/C=C/c1ccc2c(c1)O[C@H](CN(C)CCC)[C@H](C)CN([C@@H](C)CO)S2(=O)=O	-42.1[16.7 µM]	-1.9
Cc1noc(C)c1S(=O)(=O)Nc1ccc2c(c1)CC(=O)N([C@H](C)CO)C[C@@H](C)[C@@H](CN(C)Cc1ccc(C(=O)O)cc1)O2	20.1[16.7 µM]	-14.1
COc1ccc(NC(=O)Nc2ccc3c(c2)C(=O)N([C@H](C)CO)C[C@H](C)[C@@H](CN(C)S(=O)(=O)c2ccccc2)OCCCC[C@H](C)O3)cc1	-26.8[16.7 µM]	-3.1
COc1ccc(S(=O)(=O)Nc2ccc3c(c2)CC(=O)N([C@H](C)CO)C[C@H](C)[C@H](CN(C)S(C)(=O)=O)O3)cc1	-1.0[16.7 µM]	0.1
COc1ccc(S(=O)(=O)N(C)C[C@H]2Oc3cc(C4=CCCC4)ccc3S(=O)(=O)N([C@@H](C)CO)C[C@H]2C)cc1	68.9*[16.7 µM]	13.1
O=C(C[C@@H]1CC[C@H](NC(=O)c2ccc(F)cc2)[C@H](CO)O1)NCCc1ccccc1	13.8[16.7 µM]	-5.4
CCC(=O)Nc1ccc2c(c1)OC[C@H](C)N(C(=O)C1CC1)C[C@@H](C)[C@@H](OC)CN(C)C2=O	-9.5[16.7 µM]	-1.3

(further entries)
SMILES	HIV Env fusion	Yeast UUG start
C[C@@H]1CCCCO[C@H](CN(C)CC2CCCCC2)[C@H](C)CN([C@H](C)CO)C(=O)c2cc(NC(=O)Nc3ccc(F)cc3)ccc2O1	8.0[16.7 µM]	32.9
CCCN(C)C[C@H]1Oc2cc(C#Cc3ccncc3)ccc2S(=O)(=O)N([C@@H](C)CO)C[C@H]1C	-41.0[16.7 µM]	-15.6
O=C(C[C@H]1C=C[C@@H](NC(=O)C2CCOCC2)[C@@H](CO)O1)Nc1ccc(-c2ccccc2)cc1	-2.9[16.7 µM]	4.4
Cc1ccc(S(=O)(=O)N(C)C[C@@H]2OCCCC[C@@H](C)Oc3ccc(NC(=O)Nc4c(C)noc4C)cc3C(=O)N([C@H](C)CO)C[C@@H]2C)cc1	5.7[16.7 µM]	-2.2
O=C(C[C@H]1C=C[C@H](NC(=O)CN2CCOCC2)[C@@H](CO)O1)NC1CCC1	-17.5[16.7 µM]	-3.5
Cc1noc(C)c1NC(=O)N1C[C@H](O)COC[C@@H]2O[C@H](CC(=O)NCC3CC3)CC[C@H]21	-19.2[16.7 µM]	6.3
C[C@@H]1CN([C@H](C)CO)C(=O)c2cc(NC(=O)Nc3ccc(C(F)(F)F)cc3)ccc2O[C@@H](C)CCCCO[C@H]1CN(C)S(=O)(=O)c1ccc(F)cc1	46.1[16.7 µM]	-17.1
CC(C)NC(=O)N(C)C[C@@H]1OCCCC[C@@H](C)Oc2ccc(NC(=O)Nc3cccc4ccccc34)cc2C(=O)N([C@H](C)CO)C[C@@H]1C	8.0[16.7 µM]	-4.7
COc1ccc(-c2cnc3c(c2)C(=O)N([C@H](C)CO)C[C@H](C)[C@H](CN(C)C(=O)Cc2ccccn2)O3)cc1	-4.1[16.7 µM]	-22.0
C[C@H](CO)N1C[C@H](C)[C@H](CN(C)C(=O)Cc2ccccc2)Oc2ncc(-c3ccc(F)cc3)cc2C1=O	35.7[16.7 µM]	6.5

A portion of the results above, for reference:
SMILES	HIV Env fusion	Yeast UUG start
C[C@H]1CN([C@@H](C)CO)S(=O)(=O)c2ccc(C#CC3CC3)cc2O[C@H]1CN(C)C(=O)CN(C)C	3.3[16.7 µM]	-1.2
C/C=C/c1ccc2c(c1)O[C@H](CN(C)CCC)[C@H](C)CN([C@@H](C)CO)S2(=O)=O	-42.1[16.7 µM]	-1.9
Cc1noc(C)c1S(=O)(=O)Nc1ccc2c(c1)CC(=O)N([C@H](C)CO)C[C@@H](C)[C@@H](CN(C)Cc1ccc(C(=O)O)cc1)O2	20.1[16.7 µM]	-14.1
COc1ccc(NC(=O)Nc2ccc3c(c2)C(=O)N([C@H](C)CO)C[C@H](C)[C@@H](CN(C)S(=O)(=O)c2ccccc2)OCCCC[C@H](C)O3)cc1	-26.8[16.7 µM]	-3.1

Source: PubChem BioAssay (Broad Institute)
